Source: PubChem
CapD inh: Bacillus anthracis CapD inhibitors, primary screen, biochemical, fluorescence intensity; CapD gamma-glutamyltranspeptidase (Bacillus anthracis Ames Ancestor); purified CapD enzyme, fluorescence intensity read-out; hits give low values; some hits fall short of the stated cut; z-score (no concentration beside the values); actives 0.23% (n = 140,000);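 active means z-score under -4 in either of two replicates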;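 further: stock transfer was 100 nL into about 40 µL; score is relative to mean and spread of the plate; one replicate is shown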
AID504770: growth inhibition of E. coli YBA685, primary screen, V. cholerae RctB inhibitors | z-score (test concentration not listed) | actives 0.27% (n = 130,000) | E. coli YBA685 rctB-dependent plasmid, OD600 growth, 3 h; hits give low values;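 active means z-score under -2 on both plates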;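 further: wells of about 30 µL received 100 nL stock; score is relative to mean and SD of the test wells; the first replicate is given; strong numbers were not always called active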
* = called active by the depositor.

Preview (two entries):
Results for O=C(CSc1nnc(NC2CCCCC2)s1)OCc1nnc(-c2ccccc2)o1 ?
AID504770: 0.5

What do the screens show for `C=CCN(CC=C)S(=O)(=O)c1ccc(OC)cc1`?
CapD inh: 0.3; AID504770: -0.15

This part in full, from the start:
Results for O=C(CSc1nnc(NC2CCCCC2)s1)OCc1nnc(-c2ccccc2)o1 ?
AID504770: 0.5

What do the screens show for `C=CCN(CC=C)S(=O)(=O)c1ccc(OC)cc1`?
CapD inh: 0.3; AID504770: -0.15

How did O=C(NCc1ccc2c(c1)OCO2)c1cc2ccccc2oc1=O do in these assays?
CapD inh: -0.36; AID504770: 0.95

How did Cc1nn(C)c2ncc(C(=O)c3cc(F)ccc3O)cc12 do in these assays?
AID504770: -0.05

What do the screens show for `CC1CC1C(=O)NC1CCCCC1C(C)(C)C` (stereo not drawn)?
CapD inh: 1.2; AID504770: -0.15

What do the screens show for `COc1cccc(C=Nc2ccccc2SCCC#N)c1O`?
CapD inh: -0.78

How did CC(C)c1ccccc1NC(=O)c1cccc(S(=O)(=O)N(C)C)c1 do in these assays?
CapD inh: 0.02; AID504770: -1

Results for O=C(Nc1cccc(Cl)c1)OCc1cn(-c2ccc(Cl)cc2)nn1 ?
CapD inh: -0.64

How did CS(=O)(=O)c1cc(C#N)c(N2CCN(C(=O)c3cccs3)CC2)nc1-c1ccc(Cl)cc1 do in these assays?
CapD inh: 0.27

Results for C=C(C)Cc1c(C)[nH]n(S(=O)(=O)c2ccccc2)c1=O ?
CapD inh: -0.6; AID504770: -0.15

How did O=C1C(=O)N(CCN2CCOCC2)C(c2ccc(F)cc2)/C1=C(\O)c1ccccc1 (stereo not drawn) do in these assays?
CapD inh: -0.29

Results for CCOc1ccc(CC(=O)NCc2cn3ccc(C)cc3n2)cc1 ?
CapD inh: 5.3; AID504770: -0.05

How did Nc1nc(CSC(=S)N2CCCCC2)nc(Nc2ccccc2)n1 do in these assays?
CapD inh: 0.025; AID504770: -0.75

Results for CC1OC23CCCCC2C(C#N)(C#N)C1(C#N)C(=N)O3 (stereo not drawn) ?
CapD inh: 5.7; AID504770: 0.25

Results for O=C(/C=C/Nc1ccc(Cl)c([N+](=O)[O-])c1)c1ccc(OCCCF)cc1 ?
CapD inh: 0.7

Results for O=C(NCCNC1CCCC1)c1cccs1 ?
AID504770: 1.1

What do the screens show for `c1ccc(-c2csc(-c3ccncc3)n2)cc1`?
CapD inh: 14

How did OCC(CO)(CO)NC(=S)Nc1cc(Cl)cc(Cl)c1 do in these assays?
CapD inh: 0.13; AID504770: -0.6

Results for COc1ccc2nc(-c3ccccc3)cc(NCCN(C)C)c2c1 ?
CapD inh: 86; AID504770: 1.1

Results for COc1ccc(C(O)c2nc3ccccc3s2)cc1 (stereo not drawn) ?
CapD inh: 0.22; AID504770: -0.15

What do the screens show for `CC1CCN(C(=O)c2ccccc2Br)CC1`?
CapD inh: -0.81; AID504770: 2.6

How did Cc1cc(CNC(=O)c2cc(C)n(C)n2)c(C(F)(F)F)o1 do in these assays?
CapD inh: 0.24; AID504770: -0.4

How did CCc1nn2c(=O)cc(CSc3nc4sc5c(c4c(=O)n3C)CCCC5)nc2s1 do in these assays?
CapD inh: 0.58; AID504770: -0.2

What do the screens show for `CCN(C(=O)Cc1ccc(NC2=NC3CS(=O)(=O)CC3S2)cc1)c1ccccc1` (stereo not drawn)?
CapD inh: -0.35; AID504770: -0.05

What do the screens show for `CCn1c(CNC(=O)c2ccco2)nnc1SCC(=O)c1ccccc1`?
AID504770: -0.25

How did COc1ccc(OC)c(N2C(=N)/C(=C(/O)c3ccccc3)C(c3ccc4c(c3)OCO4)C3=C2CC(C)(C)CC3=O)c1 (stereo not drawn) do in these assays?
CapD inh: -0.29

What do the screens show for `COc1ccccc1OC(=O)NC(=O)C(F)(F)F`?
AID504770: 0.25

What do the screens show for `Cc1cc(C(=O)NCCNC(=O)OC(C)(C)C)c(C)n1-c1ccccc1`?
CapD inh: 0.18

Results for O=S(=O)(CC(O)c1ccncc1)c1ccc(-n2cccc2)cc1 (stereo not drawn) ?
CapD inh: -0.05

What do the screens show for `COCCNc1nc(SCC(=O)Nc2cccc(OC)c2)nc2ccccc12`?
CapD inh: 0.48

What do the screens show for `N#CC1(N2CCOCC2)CCCCC1`?
CapD inh: 0.53; AID504770: -0.35

How did O=c1c2cc(NC(=S)NCc3ccccn3)ccc2nc2n1CCCCC2 do in these assays?
CapD inh: -1.4

Results for CC12CCC(C(=O)O)(CC1=O)C2(C)C (stereo not drawn) ?
CapD inh: -0.19; AID504770: 0.2

How did c1ccc(-c2nc3cc4ccccc4cc3nc2-c2cccs2)cc1 do in these assays?
CapD inh: 0.56

Results for COc1cc(C(=O)N2c3ccccc3Sc3ccc(C(F)(F)F)cc32)cc(OC)c1OC ?
CapD inh: 0.065

Results for O=C1O[C@@H]2C[C@H]3C[C@@H]2[C@@H]1[C@H]3C(=O)N1CCN(c2ccccc2)CC1 ?
CapD inh: 0.64; AID504770: -0.3

How did CC(C)c1nc2ccccc2n1C(=O)c1ccccc1C(=O)O do in these assays?
CapD inh: -0.4; AID504770: -0.65

What do the screens show for `Cc1cc(C(=O)CSc2nnc(SCC(=O)c3cc(C)n(CC4CCCO4)c3C)s2)c(C)n1CC1CCCO1` (stereo not drawn)?
AID504770: -1.9

How did CON1C(=O)CN(C(=O)c2ccccc2)C1c1ccc(Cl)cc1Cl (stereo not drawn) do in these assays?
CapD inh: -0.49

What do the screens show for `Cc1ccc(S(=O)(=O)N2CCCC2C(=O)OCC(=O)Nc2cc(C)on2)cc1` (stereo not drawn)?
AID504770: 0

How did CCc1ccc(-c2ccc(C(=O)NCc3csc4ccccc34)cc2)cc1 do in these assays?
CapD inh: -0.69

Results for C(=N\c1nc2ccccc2n1CCN1CCCCC1)/c1ccc2c(c1)OCO2 ?
CapD inh: -0.04; AID504770: -1.1

How did O=C(NCc1cccs1)c1ccc(=O)[nH]c1 do in these assays?
AID504770: -1.5

How did CSCCC(=O)N1CCN(c2ncccn2)CC1 do in these assays?
AID504770: -0.5

Results for FC(F)(F)c1ccc(-c2nnc(SCCOc3ccccc3)o2)cc1 ?
CapD inh: -0.1

What do the screens show for `COc1cc2c(cc1OC)C(Nc1ccc(F)c(F)c1)=NC1(CCCC1)C2`?
CapD inh: 0.18

What do the screens show for `COc1cccc2sc(=NC(=O)C3=COCCO3)n(C)c12`?
CapD inh: 3; AID504770: 0.35

What do the screens show for `O=C(CN1CCC(O)(c2ccccc2)CC1)NC1CCCCC1`?
AID504770: -0.3

Results for CC[C@H](C)[C@H]1O[C@]2(CC[C@@H]1C)C[C@@H]1C[C@@H](C/C=C(\C)C(O[C@H]3C[C@H](OC)[C@@H](O[C@H]4C[C@H](OC)[C@@H](O)[C@H](C)O4)[C@H](C)O3)[C@@H](C)/C=C/C=C3\CO[C@@H]4[C@H](O)C(C)=C[C@@H](C(=O)O1)[C@]34O)O2 (stereo partly drawn) ?
CapD inh: -0.31

Results for Cc1ccc(C2C(C#N)=C(SCC(=O)Nc3cccc(Cl)c3)NC3=C2C(=O)CCC3)o1 (stereo not drawn) ?
CapD inh: 0.72

How did CN1CCCN(C(=O)c2ccc(C#N)cc2)CC1 do in these assays?
CapD inh: -0.55; AID504770: -0.45

How did CCn1c(SCc2c(F)cccc2Cl)nc2cc(S(N)(=O)=O)ccc21 do in these assays?
AID504770: 1.2

What do the screens show for `CCCN(CCC)S(=O)(=O)C1CCS(=O)(=O)C1` (stereo not drawn)?
CapD inh: -1.9; AID504770: -0.05

How did CCN(CC)c1ccc(NC(=O)CNCC2CCCCC2)c(C)c1 do in these assays?
AID504770: -1.4

Results for CCCCOc1ccc(-c2nc(C=Nc3ccc(Cl)c([N+](=O)[O-])c3)c(O)o2)cc1 ?
CapD inh: -1.2

Results for S=c1n(CN2CCC3(CC2)OCCO3)nc(-c2ccccc2)n1-c1ccccc1 ?
CapD inh: -0.27

What do the screens show for `CC1(C)C2([N+](=O)[O-])CN3CN(C2)CC1([N+](=O)[O-])C3`?
CapD inh: -0.21

What do the screens show for `CCc1oc2ccccc2c1C(=O)c1cc(Br)c(O)c(Br)c1`?
CapD inh: 0.18

Results for O=C(O)C1(c2ccccc2)CCOCC1 ?
CapD inh: -0.095; AID504770: 1.9

Results for Cc1ccc(COc2ccc(C(c3c(C)[nH]n(-c4ccccc4)c3=O)c3c(C)[nH]n(-c4ccccc4)c3=O)cc2)cc1 ?
CapD inh: 0.065

Ordered by SMILES length (highest first): part of the list above.
Results for S=c1n(CN2CCC3(CC2)OCCO3)nc(-c2ccccc2)n1-c1ccccc1 ?
CapD inh: -0.27

What do the screens show for `CCCN(CCC)S(=O)(=O)C1CCS(=O)(=O)C1` (stereo not drawn)?
CapD inh: -1.9; AID504770: -0.05

How did CN1CCCN(C(=O)c2ccc(C#N)cc2)CC1 do in these assays?
CapD inh: -0.55; AID504770: -0.45

Going on with the list.
Results for CC1CC(C)CN(C(=O)CNC(=O)Cn2cnc3ccccc3c2=O)C1 (stereo not drawn) ?
CapD inh: 0.43; AID504770: -0.4

What do the screens show for `CS/C(=N\S(=O)(=O)c1ccccc1)N1CCCCC1`?
CapD inh: -0.24

How did CCCn1c(CCC(=O)O)ccc1-c1ccccc1 do in these assays?
AID504770: -0.1

Results for O=C(Nc1ccc(F)cc1F)c1c(C(F)(F)F)ccnc1Oc1ccccc1 ?
CapD inh: 0.4; AID504770: 0.25

What do the screens show for `CN1C(=O)C(C)(C)c2cc(S(=O)(=O)N(C)CC(=O)NCc3ccccc3)ccc21`?
CapD inh: 0.22; AID504770: -0.35

How did O=C(NCCCc1ccccc1)c1cccs1 do in these assays?
AID504770: 1

Results for CCc1ccc(S(=O)(=O)N2CCCN(S(=O)(=O)c3ccc(CC)cc3)CC2)cc1 ?
CapD inh: 0.8

What do the screens show for `CN(C)Cn1c(=S)oc2cc(S(=O)(=O)Nc3ccccc3Cl)ccc21`?
AID504770: -0.55

What do the screens show for `Cc1cccc(C)c1NC(=O)C1C2C=CC(C2)C1C(=O)NCc1ccccn1` (stereo not drawn)?
AID504770: -0.5

What do the screens show for `c1ccc(Nc2nc(CN3CCCCC3)cs2)cc1`?
CapD inh: -0.16; AID504770: 2.1

What do the screens show for `C=CCC1CC(=O)N(c2ccc(C(F)(F)F)cc2)C1=O` (stereo not drawn)?
CapD inh: 0.26; AID504770: 0.65

How did C=CCNC(=O)c1c(N)n(-c2cccc(S(N)(=O)=O)c2)c2nc3ccccc3nc12 do in these assays?
AID504770: 1

Overlap with the part before: 6 compounds, followed by the next part.
Results for CCc1ccc(S(=O)(=O)N2CCCN(S(=O)(=O)c3ccc(CC)cc3)CC2)cc1 ?
CapD inh: 0.8

What do the screens show for `CN(C)Cn1c(=S)oc2cc(S(=O)(=O)Nc3ccccc3Cl)ccc21`?
AID504770: -0.55

What do the screens show for `Cc1cccc(C)c1NC(=O)C1C2C=CC(C2)C1C(=O)NCc1ccccn1` (stereo not drawn)?
AID504770: -0.5

What do the screens show for `c1ccc(Nc2nc(CN3CCCCC3)cs2)cc1`?
CapD inh: -0.16; AID504770: 2.1

What do the screens show for `C=CCC1CC(=O)N(c2ccc(C(F)(F)F)cc2)C1=O` (stereo not drawn)?
CapD inh: 0.26; AID504770: 0.65

How did C=CCNC(=O)c1c(N)n(-c2cccc(S(N)(=O)=O)c2)c2nc3ccccc3nc12 do in these assays?
AID504770: 1

Results for O=C(CN1CCN(c2ccc(O)cc2)CC1)c1ccc[nH]1 ?
AID504770: -0.1

How did O=C(CSCc1ccccc1)NCc1ccc2c(c1)OCO2 do in these assays?
CapD inh: -0.3; AID504770: -1.1

What do the screens show for `CSC1=NSC2=NC(=O)/C(=C\c3cccc4ccccc34)C(=N)N12`?
CapD inh: -0.66; AID504770: 0.05

What do the screens show for `O=S(=O)(Nc1cccc(-c2ccc(N3CCCC3)nn2)c1)c1ccccc1`?
CapD inh: 0.41; AID504770: 0.2

How did CN(C)c1ccc(/C=N/NC(=O)C(O)(c2ccccc2)c2ccccc2)o1 do in these assays?
CapD inh: 0.78; AID504770: 0.15

Results for COc1ccc(C(=O)CC(C(=O)c2ccccc2)c2ccccc2)cc1 (stereo not drawn) ?
CapD inh: 0.38; AID504770: -0.65

What do the screens show for `O=C(CSc1nc2ccc(NC(=O)c3ccccc3C(=O)O)cc2s1)Nc1ccc(F)c([N+](=O)[O-])c1`?
CapD inh: -0.68

Results for O=C(c1cc(-c2csc(-c3ccccn3)n2)c[nH]1)N1CCCC1 ?
AID504770: 0.3

How did Cc1ccc(-c2c3c(=O)n(C)c(=O)n(C)c3c3c(C)cc(C)nn23)cc1 do in these assays?
CapD inh: -0.085; AID504770: 0.45

What do the screens show for `Cc1ccc2c(c1)c(=O)c1ccccc1n2CC(=O)Nc1ccc(C(F)(F)F)cc1`?
CapD inh: 1.1

How did COC(=O)c1cc(S(=O)(=O)N2c3ccccc3CC2C)c[nH]1 (stereo not drawn) do in these assays?
CapD inh: -1.1; AID504770: -0.9

How did COc1cccc(C2Oc3ccc(Cl)cc3C3CC(c4cccs4)=NN32)c1OC (stereo not drawn) do in these assays?
CapD inh: 1.8

What do the screens show for `Cn1c(SCC(=O)NCc2ccccc2)nnc1-c1c[nH]c2ccccc12`?
CapD inh: -0.78; AID504770: -0.5

How did O=C1NC2(CCOc3ccccc32)C(=O)N1CCOc1c(Cl)cccc1Cl (stereo not drawn) do in these assays?
AID504770: -0.6

How did Cc1cc(NC(=O)Cn2c(=O)n(CC(=O)NCCc3ccccc3)c(=O)c3ccccc32)n[nH]1 do in these assays?
AID504770: -0.35

How did O=S(=O)(c1ccc(NN=C2CCCC2)nc1)N1CCCCC1 do in these assays?
AID504770: 0.25

How did CCC(=O)N(c1nnc(SCC(=O)Nc2c(C)nn(-c3ccccc3)c2C)s1)C1CC1 do in these assays?
AID504770: 0.2

How did CC1CC(C)CN(S(=O)(=O)c2ccc(Sc3ccc(F)cc3)c(C(=O)N3CCC4(CC3)OCCO4)c2)C1 (stereo not drawn) do in these assays?
CapD inh: -1.5

A portion of the library; rates above refer to the full screens.
